Bioassay records deposited in PubChem BioAssay by National Center for Advancing Translational Sciences (NCATS).
CtBP-E1A blk: inhibitors of CtBP/E1A interaction | AlphaScreen GST-E1A/His-CtBP binding, 1536-well; stronger effect = lower value; control for the full effect not named in the record | 340,000 compounds, 0.49% hits | activity change, % (no concentration beside the values) | AID 651724; in the data active means activity change below about -65%; inconclusive means about -30% to -65%; inactive means above about -30%; also: % is scaled to controls: 0 for no effect and ±100 for the full control effect
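Homogeneous bead-based format: GST-tagged E1A captured on glutathione donor beads, His-tagged CtBP on nickel acceptor beads; compounds precede bead addition by 2 h at 37 °C.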
TRPML1 agonist: agonists of human TRPML1 channel. Q9GZU1. TRPML1-expressing cells, Ca2+ dye fluorescence, FDSS; host cell line not named in the record; reference of the full effect not given here. activation, % (no concentration beside the values). 410,000 compounds, 0.12% hits; in the data active = activation above about 50%; inconclusive = about 30% to 50%; inactive = below about 30%; also: 0% is about no effect; the text of the record puts the active cut at 80%
Target sequence (Q9GZU1 whole entry, looked up): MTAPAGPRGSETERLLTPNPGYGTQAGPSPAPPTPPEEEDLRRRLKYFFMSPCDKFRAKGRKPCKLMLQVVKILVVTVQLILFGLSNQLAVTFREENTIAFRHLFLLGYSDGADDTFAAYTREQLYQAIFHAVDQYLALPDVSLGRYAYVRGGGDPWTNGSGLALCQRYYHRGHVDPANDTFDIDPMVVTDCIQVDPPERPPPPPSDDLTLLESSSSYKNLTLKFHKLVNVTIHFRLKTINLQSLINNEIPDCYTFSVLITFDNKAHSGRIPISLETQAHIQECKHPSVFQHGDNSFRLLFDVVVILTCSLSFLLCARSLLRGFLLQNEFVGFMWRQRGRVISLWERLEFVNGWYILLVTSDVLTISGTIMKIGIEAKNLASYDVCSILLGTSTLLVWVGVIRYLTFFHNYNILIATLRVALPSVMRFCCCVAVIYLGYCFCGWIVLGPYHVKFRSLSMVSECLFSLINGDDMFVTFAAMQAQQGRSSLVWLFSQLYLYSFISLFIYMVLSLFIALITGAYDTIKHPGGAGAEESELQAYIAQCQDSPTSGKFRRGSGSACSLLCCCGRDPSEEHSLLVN
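Tetracycline-induced TRPML1-DL cells are seeded and incubated overnight before loading with a no-wash Ca2+ dye and quencher. Agonist activity is taken from the 110 s fluorescence read following compound pin-transfer on an FDSS, before EC80 54-4 challenge.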
D2 ag: activates the human D2 dopamine receptor; P14416; DiscoveRx PathHunter D2 beta-arrestin, luminescence, 90 min; 100% = 57 uM dopamine signal; activation, % (concentration not given with the values); 360,000 compounds, 0.084% hits; AID 624465; in the data active = activation above about 40%; inconclusive = about 15% to 40%; inactive = below about 15%; also: the text of the record calls up to 30% inactive
Target sequence (P14416 whole entry, looked up): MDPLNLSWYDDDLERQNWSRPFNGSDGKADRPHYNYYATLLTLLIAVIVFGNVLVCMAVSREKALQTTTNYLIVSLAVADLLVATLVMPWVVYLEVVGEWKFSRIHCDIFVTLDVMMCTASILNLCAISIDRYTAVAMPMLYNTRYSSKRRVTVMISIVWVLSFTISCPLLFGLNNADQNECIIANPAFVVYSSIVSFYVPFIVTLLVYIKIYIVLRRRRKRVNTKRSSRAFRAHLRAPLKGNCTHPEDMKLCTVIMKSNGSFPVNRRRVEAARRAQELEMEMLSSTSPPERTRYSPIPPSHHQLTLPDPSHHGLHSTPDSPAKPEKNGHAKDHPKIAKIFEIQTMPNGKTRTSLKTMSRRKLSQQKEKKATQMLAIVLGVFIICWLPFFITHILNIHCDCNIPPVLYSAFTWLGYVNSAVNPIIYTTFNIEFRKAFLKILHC
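Agonist mode: compounds alone added to overnight-plated D2 PathHunter cells for 90 min at 37 C, with 57 uM final dopamine (EC100) defining full response. Beta-arrestin recruitment detected by chemiluminescent reagent, read after 1 h at ambient temperature.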
D2 PAM: human D2 receptor positive allosteric modulation; P14416; DiscoveRx D2 beta-arrestin cells, luminescence, 90 min; 100% = 57 uM dopamine signal; 360,000 compounds, 0.23% hits; potentiation, % (test concentration not listed); active = potentiation of 50% or more; inconclusive = 30% to 50%; inactive = 30% or less;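 also: compound concentration not given in the record; tested on top of an EC20 dose of dopamine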
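PathHunter D2 cells, attached overnight at 37 deg C, received compound in DMSO plus dopamine at EC20 (50 nM final) for 90 min at 37 deg C. Beta-arrestin recruitment was read as luminescence after 1 h with detection reagent at ambient temperature.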
PINK1 modulator: changes PINK1 expression. PINK1 immunofluorescence, high-content cytometry, 24 h. Potency, µM (doses to about 76.6 µM), for the others: top-dose activation (PINK1 increase), usual class: activators. 410,000 compounds, 0.2% hits; active = well fitted activation curve with a large enough effect; inconclusive = small, poorly fitted or top-dose-only effect; inactive = flat fitted curve, though single readings scatter; cell line not stated here;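 also: potency is read from the fitted curve at half-maximal effect; % of control where 0% means no effect; nearly all actives have a fitted effect of over 65% in size; a mitochondrial uncoupler was the plate control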
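Decision-based qHTS: stable cells, 24 h exposure to five compound concentrations, CCCP as control. Fixed cells stained for PINK1 plus nuclear, mitochondrial and cell markers, cytometer read.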
Six1-Eya2 inh: Six1/Eya2 interaction inhibition; Q15475+O00167; AlphaScreen GST-Six1/His-Eya2 binding, biochemical; stronger effect = lower value; control for the full effect not named in the record; activity change, % (concentration not given with the values); 360,000 compounds, 0.56% hits; AID 651725; in the data active = activity change below about -65%; inconclusive = about -30% to -65%; inactive = above about -30%; also: % is scaled to controls: 0 for no effect and ±100 for the full control effect
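Homogeneous AlphaScreen proximity assay pairing GST-Six1 with His-tagged Eya2 (added as 5X mix: 250 nM and 500 nM) in 50 mM Tris pH 8.0, 300 mM NaCl, 1 mM TCEP. Glutathione donor and nickel acceptor beads; 1 h, 37 °C, dark.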
* hit, by the source's call; ? = inconclusive; nt = not tested or not shown; [ ] = remark or other dose.

A first look:
SMILES	CtBP-E1A blk	TRPML1 agonist	D2 ag	D2 PAM	PINK1 modulator	Six1-Eya2 inh
CCOC(=O)C1CCCN(C(=O)c2ccccc2[N+](=O)[O-])C1 (configuration not stated)	-20.3	-0.3	3.3	-7.1	1.4%	2.4
Cc1cc(Cl)cc(C)c1OCCn1ccnc1	2.4	-1.2	4.2	-4.1	1.0%	-4.3
CCN(CC)C(=O)CSc1nc2ncc(Cl)cc2[nH]1	11.0	0.3	2.3	-26.8	-1.4%	-3.9

The whole of this part (from the top)
SMILES	CtBP-E1A blk	TRPML1 agonist	D2 ag	D2 PAM	PINK1 modulator	Six1-Eya2 inh
CCOC(=O)C1CCCN(C(=O)c2ccccc2[N+](=O)[O-])C1 (configuration not stated)	-20.3	-0.3	3.3	-7.1	1.4%	2.4
Cc1cc(Cl)cc(C)c1OCCn1ccnc1	2.4	-1.2	4.2	-4.1	1.0%	-4.3
CCN(CC)C(=O)CSc1nc2ncc(Cl)cc2[nH]1	11.0	0.3	2.3	-26.8	-1.4%	-3.9
CC1(C)CC(NC(=O)N2c3ccccc3Sc3ccccc32)CC(C)(C)N1	-2.6	5.0	-23.5	5.3	-0.4%	-2.5
Cc1cccc(NS(=O)(=O)c2ccc(C)c(C(=O)NCC(c3ccco3)N3CCCCC3)c2)c1 (configuration not stated)	-1.6	-0.6	-2.1	-8.0	2.6%	-2.9
COc1ccc(-c2oc(=O)n(C)c2-c2ccc(OC)cc2)cc1	-11.9	3.4	0.9	0.4	0.3%	-8.6
CCc1nc(NCCO)c(C#N)c2c1CCCC2	-4.6	1.5	-3.0	-8.8	-1.2%	-0.8
c1ccc(CNn2nnnc2-c2ccccc2)cc1	19.7	0.8	1.2	4.2	3.2%[38.3 µM]	6.2
CCS(=O)(=O)Nc1c(C(=O)O)[nH]c2ccccc12	0.0	-0.4	-0.3	-11.6	0.1%	7.3
CC(=O)C1=NN(c2ccccc2)C(c2ccc3c(c2)OCO3)N1c1ccccc1 (configuration not stated)	56.5	1.7	-2.7	0.2	4.8%	50.2
Cc1nnc(SCC(=O)c2cc(C)n(C3CC3)c2C)s1	-11.4	3.0	-1.4	4.4	0.9%	3.0
CCOC(=O)c1cnc2c(CC)cccc2c1NCCN1CCOCC1	nt	nt	-6.2	-7.3	7.8%	1.9
CC(C)C(C)NC(=O)CSc1ccc(S(=O)(=O)N2CCOCC2)cn1 (configuration not stated)	0.0	0.9	-2.9	-3.3	0.5%	3.0
COc1ccc(C(=O)Nc2ccc(NS(=O)(=O)c3ccccc3)cc2)cc1OC	-10.9	1.0	2.3	0.7	1.7%	-18.2
CCn1c(-c2nn(C)c(C)c2Cl)n[nH]c1=S	-1.2	1.8	1.1	-5.6	-3.0%	-0.1
CN(C)S(=O)(=O)c1ccccc1N=C=S	nt	-0.2	-3.1	-10.9	-0.5%	7.9
Cc1cc(C(=O)N/N=C\c2ccc(COc3ccc([N+](=O)[O-])cc3)o2)ccc1[N+](=O)[O-]	-7.7	-0.5	-1.8	15.7	3.1%	0.0
CCN(CC(=O)NCc1cccs1)C(=O)c1ccc(-c2cccc(C(F)(F)F)c2)o1	-0.4	3.6	-6.2	-7.9	3.5%	-2.8
CC[C@H](C)[C@H](NC(N)=O)C(=O)NCCc1ccc(Cl)cc1Cl	0.0	0.4	-3.7	-0.2	0.4%	8.0
Cc1c(C)c(C)c(CN2CCCC2)c(C)c1C	2.8	0.7	-10.0	-3.7	1.0%	-2.6
CCCCN(C(=O)Cc1ccc(S(=O)(=O)N2CCOCC2)s1)c1c(N)n(CCCC)c(=O)[nH]c1=O	1.8	-0.6	-2.8	7.2	-0.8%	-0.1
CCCCN(C=O)c1c(CC)nc2c(OCc3ccc(S(C)(=O)=O)cc3)cccn12	-20.1	-0.9	7.8	-8.0	-0.9%	-6.0
Cc1cc(C(=O)Nc2ccc3ccccc3c2)c(C)o1	-7.6	-0.5	-1.2	-0.7	0.6%	-11.3
CC(C)(C)C(=O)CN1C(=O)C2(OCCO2)c2ccccc21	21.0	-0.4	-0.2	-3.8	1.7%	1.3
COc1ccccc1/C=C/C=N/n1c(C)nnc1C	-6.8	-0.4	2.4	-2.5	-0.1%	1.9
CCOc1cc(C(=O)NC2=NCCS2)cc(OCC)c1OCC	0.5	1.3	1.2	0.8	1.9%	-0.4
CCCCn1c(N)c(N(CC(C)C)C(=O)c2cc(=O)[nH]c3ccccc23)c(=O)[nH]c1=O	-18.1	1.9	0.5	-15.8	-3.5%	4.0
COCCN(C(=O)CCC(=O)Nc1cc(C)on1)C(C(=O)NC1CCCC1)c1ccccc1F (configuration not stated)	-25.9	0.0	-0.2	-3.7	2.3%	-13.1
NS(=O)(=O)c1ccc(-c2ccc(/C=N/NC(=O)c3ccc([N+](=O)[O-])cc3)o2)cc1	5.2	1.3	1.3	5.4	39.8µM*	5.5
COc1ccccc1Oc1ccc(NC(=O)c2ccccc2)cc1	6.7	0.2	-6.5	-9.3	2.4%	-3.3
O=C(CN1CCC(c2nc3ccccc3s2)CC1)NCc1ccccc1	1.4	-0.3	-1.3	-21.4	2.1%	-2.2
Cc1nc(=O)c(-c2ccccc2)c(C)n1CC1CCCO1 (configuration not stated)	8.3	0.2	-0.2	7.4	0.4%	0.5
CSc1ccc(CCNC(=O)C2CCCN(c3ncnc4c3nc3n4CCCCC3)C2)cc1 (configuration not stated)	-17.1	1.7	-0.5	-2.3	0.5%	-9.5
Cc1ccc(CNC(=O)COc2ccccc2-c2ccccc2)cc1	3.3	3.3	0.2	-18.6	3.7%	9.0
COc1ccc(S(=O)(=O)Nc2ccc(N(C)C(C)=O)cc2)cc1	-0.7	0.1	0.6	2.4	4.5%	5.5
Cc1onc(-c2c(Cl)cccc2Cl)c1C(=O)Nc1nc(C(C)(C)C)cs1	-1.9	0.3	-5.7	-12.9	?	-1.3
N#Cc1c(N2CCCCC2)nc(N2CCCCC2)c2c1CCN(Cc1ccccc1)C2	-7.4	0.0	-1.8	-23.1	1.0%[38.3 µM]	-1.8
O=C(CCOc1ccccc1)Nc1ccnn1C1CCN(Cc2ccc(CO)o2)CC1	-6.2	0.0	1.3	0.4	1.3%	-8.8
O=[N+]([O-])c1cnc(Sc2ccncn2)c([N+](=O)[O-])c1	2.1	0.2	-2.9	-17.5	11.3%	?
O=C(CSc1nc2ccccc2c(=O)n1-c1ccc(Cl)c(Cl)c1)Nc1ccc2c(c1)CCC2	4.3	0.1	-5.2	-4.0	0.3%	-1.6
Cc1nc(CC(=O)Nc2nc(C(C)(C)C)cs2)cs1	-3.3	0.6	0.0	-5.1	-0.3%	-1.3
CON(C)S(=O)(=O)c1ccc2c(c1)N(Cc1ccc(C)cc1)C(=O)C1CCCN21 (configuration not stated)	-7.4	0.2	-2.7	-2.9	2.9%	3.1
Cc1ccc(S(=O)(=O)CCC(=O)OCC(=O)NCc2ccccc2)cc1	20.4	-0.8	-5.4	-15.7	-0.3%	0.7
COc1ccc(N2CC(C(=O)N[C@H](C(=O)NC3CCCC3)C(C)C)CC2=O)cc1 (some centres not stated)	6.3	-0.9	-4.4	-6.5	0.1%	6.5
CN(CC(=O)Nc1c(Cl)cccc1Cl)C(=O)c1ccc(-n2cncn2)c([N+](=O)[O-])c1	0.3	0.8	-4.1	-18.9	-2.7%	0.5
CCCc1nnc(SCC(=O)N2CCOCC2)n1Cc1ccco1	10.6	-0.3	-0.9	-2.0	0.9%	0.1
CC(=O)Nc1nonc1-n1nnc(C(=O)NCc2ccccc2)c1C	-10.0	0.3	-1.2	-2.4	-2.9%	7.3
CSc1ncc(CN2CCc3c([nH]c4ccccc34)C2c2cccc(C)n2)cn1 (configuration not stated)	-19.9	1.0	-0.9	-14.8	2.8%	-4.9
Cc1ccc(-n2nccc2-c2nn(-c3cccc(C(F)(F)F)c3)c(=O)n(C)c2=O)cc1	1.8	0.6	11.4	0.7	-2.2%	3.6
O=S1(=O)CCN(Cc2cccc(Cl)c2)CC1	5.0	0.7	3.7	-27.1	1.1%	7.9
O=S(=O)(Nc1ccc(Cl)c(C(F)(F)F)c1)c1cnc[nH]1	-3.7	0.3	-1.5	-8.0	0.4%	4.7
O=C(c1ccco1)N1CCN(C(=O)c2ccc(CS(=O)c3ccc(Br)cc3)o2)CC1 (configuration not stated)	-14.9	0.1	-3.8	-2.4	0.0%	0.3
O=C(OC1CCOC1=O)c1ccc2ccccc2n1 (configuration not stated)	5.0	-1.5	-2.9	-3.8	7.2%	0.6
Cc1nnc(Cc2ccccc2)c2n[nH]c(C)c12	-13.1	0.2	2.3	-10.3	1.4%	3.8
COc1cc(-c2cc(C(=O)Nc3cccc(S(=O)(=O)N(C)C)c3)c3ccccc3n2)cc(OC)c1OC	-1.4	0.5	0.0	11.3	0.7%	-1.6
CCCSc1ncnc2[nH]ncc12	-3.3	0.3	-2.4	-3.1	-4.3%	2.5
O=C(c1ccccc1)c1ccc(CN2C(=O)c3ccccc3C2=O)o1	1.8	-0.3	-1.9	-4.8	2.8%[38.3 µM]	-1.2
CCSc1ncc(Cl)c(C(=O)N(Cc2ccc(N(C)C)cc2)C2CCS(=O)(=O)C2)n1 (configuration not stated)	-9.6	0.2	-4.4	11.4	-1.4%	-12.7
Cc1cc(Cl)ccc1C(O)c1ncc(-c2cccc(C(F)(F)F)c2)[nH]1 (configuration not stated)	-23.1	-0.4	6.0	-7.9	?	-5.4
C/C(=N\NC(=O)c1cccc2ccccc12)c1cccnc1	5.0	-0.4	1.9	-6.6	2.6%	1.2
(listing goes on)
SMILES	CtBP-E1A blk	TRPML1 agonist	D2 ag	D2 PAM	PINK1 modulator	Six1-Eya2 inh
Cc1ccnc(NS(=O)(=O)c2ccc(NS(=O)(=O)c3ccc(Br)cc3)cc2)n1	nt	3.8	2.5	-3.6	0.8%	-1.9
COc1ccc(/C=C2\SC(=S)N(CCCC(=O)Nc3ccc(C(=O)O)cc3)C2=O)cc1OC	-20.8	-0.6	-2.8	-12.4	-0.6%	2.2
O=C(CN1CCN(Cc2ccc3c(c2)OCO3)CC1)Nc1ccc(F)cc1	2.2	3.6	-4.5	-39.5	-0.1%	-2.3
O=C(O)C1OCC2(CO1)COC(C(=O)O)OC2 (configuration not stated)	4.5	-0.2	1.0	2.2	1.2%	1.1
Cc1ccc(S(=O)(=O)Cc2c(C)noc2C)cc1	2.3	-0.1	-2.5	-1.4	1.4%[38.3 µM]	2.6
CC(C)C[C@@H](CSc1ccc(Br)cc1)N1CCN(CC(C)C)CCC1=O	5.9	3.0	-2.4	-11.6	?	5.2
CCC1C(=O)N=C(SCC(=O)Nc2ccc(C(=O)OC)cc2)NC1=O (configuration not stated)	-1.5	-0.8	0.9	1.7	-3.3%	-1.1
c1ccc(Nc2nc(Nc3ccccc3)nc(N3CCNCC3)n2)cc1	?	-0.1	-0.1	-19.8	0.9%	-12.6
O=C(O)CSc1nnc(CNc2cccc(C(F)(F)F)c2)n1Cc1ccco1	-1.4	-0.6	3.5	4.6	0.8%	7.2
Cc1nn(CC(=O)NCc2ccc(C(=O)O)cc2)c(C)c1[N+](=O)[O-]	25.2	0.0	0.0	-4.4	1.5%	26.1
O=[N+]([O-])C1=CC=C2C(=NC3(CCCCC3)N2O)C1=NCCc1ccccc1	nt	1.7	5.1	-1.8	5.5%	-11.4
COC(=O)c1ccc(C(=O)OC)c(NC(=S)N2CCCC2)c1	5.4	2.6	3.5	-2.1	-3.0%	0.1
